Assay outcomes deposited in PubChem by PCMD.
Calb biofilm kill: clotrimazole potentiators killing C. albicans biofilm, primary screen, 4-compound mixtures | C. albicans biofilm persisters + clotrimazole, fluorescence viability; primary screen in compound mixtures of four per well | inhibition, % at 7.6 µM | 0.02% of 120,000 active | AID 1242, 2008;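 active = inhibition above 30.3% in the primary screen of four-compound pools, then above 30% when the compound was retested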;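 note: compounds exposed to preformed 24 h biofilms for 48 h; the number belongs to the whole pool; some results filed as inactive read as strong as hits; inactives centre near 12; 0% = biofilm with clotrimazole alone and 100% = kill control; retested singly at about 60 µM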
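Probe or stimulus – Clotrimazole 50 µg/mL co-treatment · System – C. albicans biofilms · Schedule – 24 h biofilm formation, then 48 h compound exposure, 37 °C · Evaluation – percent inhibition of biofilm viability · Technique – 2-h Alamar Blue fluorescence, 535/590 nm excitation/emission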
* marks the source's active call; other numbers are inactive results.

Preview, seven compounds:
Screening Cc1cc(C)cc(NC(=S)/C(=C(\[O-])c2ccc(Cl)cc2Cl)[n+]2ccccc2)c1 returned Calb biofilm kill 16.4.
Screening COc1ccccc1NC(=O)N1CCc2c([nH]c3ccccc23)C1C(F)(F)F (stereo unspecified) returned Calb biofilm kill 12.8.
`N#Cc1nc(-c2ccccc2)oc1NCCCn1ccnc1` gave Calb biofilm kill 2.3.
For Cc1noc(C)c1C(=O)OCC(=O)Nc1cc(S(=O)(=O)N2CCOCC2)ccc1Cl the results were Calb biofilm kill 8.8.
Screening C/C(CC(=O)Nc1ccc(Cl)cc1)=N\NC(=O)C(=O)NCCO returned Calb biofilm kill 12.3.
`CCC(C(=O)OCC(=O)Nc1ccccc1-c1ccccc1)c1ccccc1` (stereo unspecified) gave Calb biofilm kill 5.4.
`COC(CNC(=O)c1ccc(-n2c(=S)[nH]c3ccccc3c2=O)cc1)OC` gave Calb biofilm kill 7.7.

All compounds of this part (from the top)
Screening Cc1cc(C)cc(NC(=S)/C(=C(\[O-])c2ccc(Cl)cc2Cl)[n+]2ccccc2)c1 returned Calb biofilm kill 16.4.
Screening COc1ccccc1NC(=O)N1CCc2c([nH]c3ccccc23)C1C(F)(F)F (stereo unspecified) returned Calb biofilm kill 12.8.
`N#Cc1nc(-c2ccccc2)oc1NCCCn1ccnc1` gave Calb biofilm kill 2.3.
For Cc1noc(C)c1C(=O)OCC(=O)Nc1cc(S(=O)(=O)N2CCOCC2)ccc1Cl the results were Calb biofilm kill 8.8.
Screening C/C(CC(=O)Nc1ccc(Cl)cc1)=N\NC(=O)C(=O)NCCO returned Calb biofilm kill 12.3.
`CCC(C(=O)OCC(=O)Nc1ccccc1-c1ccccc1)c1ccccc1` (stereo unspecified) gave Calb biofilm kill 5.4.
`COC(CNC(=O)c1ccc(-n2c(=S)[nH]c3ccccc3c2=O)cc1)OC` gave Calb biofilm kill 7.7.
`CCN1CCc2c(sc(NC(=O)CN3C(=O)c4ccccc4C3=O)c2C(N)=O)C1` gave Calb biofilm kill 19.7.
For C/C(O)=C(\N=Nc1cc(C)ccc1O)C(N)=O the results were Calb biofilm kill 50.4.
COC(OC)c1ccc(C#N)c(=O)[nH]1 was read as Calb biofilm kill 14.6.
For CCOc1ccc(S(=O)(=O)N(CC(=O)NCC(F)(F)F)Cc2ccco2)cc1 the results were Calb biofilm kill 0.3.
Screening CCOc1ccc(S(=O)(=O)Nc2ccccc2C(=O)N2CCCC2)cc1 returned Calb biofilm kill 0.9.
`CN(C)S(=O)(=O)c1ccc(C(=O)Nc2cc(=O)n(C)c(=O)n2C)cc1` gave Calb biofilm kill 10.5.
COc1ccc(NC(=O)C2CCOC(C)(C)C2)cc1 (stereo unspecified) was read as Calb biofilm kill 19.4.
Screening COc1ccc(-c2c[n+](CC(=O)c3ccccc3)c3n2CCCCC3)cc1 returned Calb biofilm kill 16.5.
CC(=O)Nc1ccc2c(c1)C(=O)N(c1cccc(C)c1)C2=O was read as Calb biofilm kill 18.5.
For COC(=O)C1=C(C)NC(C)=C(C(=O)OCCN(C)Cc2ccccc2)C1c1cccc([N+](=O)[O-])c1 (stereo unspecified) the results were Calb biofilm kill 12.0.
`CCOC(=O)C(NC(=O)c1ccccc1)(OCc1ccc(F)cc1)C(F)(F)F` (stereo unspecified) gave Calb biofilm kill 16.2.
Screening CN1C(=O)/C(=C/C=C2\SCCN2C)SC1=S returned Calb biofilm kill 11.3.
Cc1ccc(C(=O)Nc2ccnc(-c3ccncc3)n2)cc1 was read as Calb biofilm kill 10.2.
CC(C)(C)OC(=O)N1CCCN(C(=O)Nc2cccc(Cl)c2)CC1 was read as Calb biofilm kill 22.4.
For CCc1nnc(NS(=O)(=O)c2ccc(N=CC3=C(O)CC(C)(C)CC3=O)cc2)s1 the results were Calb biofilm kill 6.7.
`Cc1cc(N2C(=O)C(O)=C(C(=O)c3cccs3)C2c2ccc(F)cc2)no1` (stereo unspecified) gave Calb biofilm kill 22.9.
For CC(NC(=O)CSc1cccc(C(F)(F)F)c1)c1ccccc1 (stereo unspecified) the results were Calb biofilm kill 15.2.
COc1ccc(-c2nnn(CC(=O)N(CCCN3CCOCC3)C(C(=O)NC3CCCC3)c3ccco3)n2)cc1 (stereo unspecified) was read as Calb biofilm kill 23.9.
Screening COCC(C)NC(=O)CSc1nc2nn(-c3ccccc3)c(=O)c-2c2n1CCCCC2 (stereo unspecified) returned Calb biofilm kill -6.9.
For Cn1cccc/c1=N\c1cccc[n+]1C the results were Calb biofilm kill 19.6.
`O=C(CSc1nnc2ccc(-c3ccncc3)nn12)N1CCCCC1` gave Calb biofilm kill -13.0.
`COc1cc(/C=C/C(=O)O)ccc1OCc1cnc(Cl)s1` gave Calb biofilm kill 14.8.
`O=C(CNC(=O)c1ccncc1)N/N=C/c1ccccn1` gave Calb biofilm kill 18.1.
CCOC(=O)C1C(=O)NC(c2ccccc2)=NC1c1ccc(OC)cc1 (stereo unspecified) was read as Calb biofilm kill 6.3.
`Cc1nn(C)c(-c2n[nH]c(=S)n2Cc2ccco2)c1Cl` gave Calb biofilm kill 0.7.
For CSc1nnc(C(C)(C)C)c(=O)n1/N=C/c1ccccc1O the results were Calb biofilm kill 21.8.
For COc1cccc(NC(=O)COC(=O)c2c(F)cccc2F)c1 the results were Calb biofilm kill 4.7.
COC(=O)C(Cc1ccccc1)NC(=O)CNS(=O)(=O)c1ccc(Br)cc1 (stereo unspecified) was read as Calb biofilm kill 20.1.
COc1ccc(CN(CCC(c2ccc(F)cc2)C2CCOC(C)(C)C2)C(=O)c2ccco2)cc1 (stereo unspecified) was read as Calb biofilm kill 0.7.
`CCOC(=O)C1=C(O)C(=O)N(Cc2ccc(C(C)(C)C)cc2)CC1` gave Calb biofilm kill 15.2.
Cc1ccc(NS(=O)(=O)c2cc(C(=O)N3CCCC3)ccc2C)cc1C was read as Calb biofilm kill 7.3.
Cc1ccc(NC(=O)c2cc(-c3cccs3)nc3ccccc23)nc1 was read as Calb biofilm kill 35.3.
CC(=O)Nc1ccc2nc(CN3CCC(CO)(CCc4ccccc4)CC3)ccc2c1 was read as Calb biofilm kill -4.3.
Screening CN(C)CCCN(C(=O)c1cccs1)c1nc2cc3c(cc2s1)OCO3 returned Calb biofilm kill 11.2.
`CC(CN1C(C)CCCC1C)OC(=O)c1ccc(Cl)cc1Cl` (stereo unspecified) gave Calb biofilm kill 8.6.
COC(=O)CCN(C(=O)c1ccc([N+](=O)[O-])cc1)c1ccccn1 was read as Calb biofilm kill 6.5.
For CC(=O)Nc1cccc(-c2csc(Nc3ncccn3)n2)c1 the results were Calb biofilm kill 10.2.
Cc1ccc(NC(=O)Cn2c(-c3ccc(F)cc3)cnc2SCC(=O)Nc2c(C)cccc2C)cc1 was read as Calb biofilm kill 17.0.
`COc1cc(C(=O)OCC2CC(c3ccccc3)=NO2)cc(OC)c1OC` (stereo unspecified) gave Calb biofilm kill 9.7.
CC(=O)c1ccc(N(C(=O)c2csnn2)C(C(=O)NC(C)(C)C)c2cccs2)cc1 (stereo unspecified) was read as Calb biofilm kill 6.9.
`CCOc1ccc(OCC)c(NC(=O)c2ccc(CNc3c(N4CCCC4)c(=O)c3=O)cc2)c1` gave Calb biofilm kill 6.1.
`O=C(CN1CCCC1)OCCCc1ccccc1` gave Calb biofilm kill 6.5.
`COc1ccc(N2CCN(C(=O)CCCCCn3c(=O)[nH]c4ccsc4c3=O)CC2)cc1` gave Calb biofilm kill 37.5.
Cc1cc(N/C=C\c2nnnn2-c2ccc(F)cc2)no1 was read as Calb biofilm kill 12.0.
CN(C)Cc1c(-c2ccc(Cl)cc2)nc2ccccn12 was read as Calb biofilm kill -2.6.
`CSc1c(SCc2ccccc2)cnn(Cc2ccccc2)c1=O` gave Calb biofilm kill 14.8.
For CCOc1[nH]n(-c2ccccc2)c(=O)c1C=Nc1ccccc1 the results were Calb biofilm kill 10.0.
Cn1nc(-c2ccccc2)c(N2CCCCC2)cc1=O was read as Calb biofilm kill 4.6.
Screening O=C(/C=C/c1ccco1)Oc1ccc(C(=S)N2CCOCC2)cc1 returned Calb biofilm kill 12.2.
Screening CC1CCCCC1NC(=O)COC(=O)c1cc(=O)c2ccccc2o1 (stereo unspecified) returned Calb biofilm kill 2.4.
CC(C)(C)OC(=O)N1CCC[C@H]1c1nnc(SCc2cccc(Cl)c2)o1 was read as Calb biofilm kill 21.5.
For COc1cccc(CN2CCNC(=O)C2CC(=O)NCCc2nc(C)c(C)s2)c1OC (stereo unspecified) the results were Calb biofilm kill 5.8.
Screening CC(C)Nc1ccc(C(CC(N)=O)NC(=O)Cc2ccc(Cl)cc2)cc1[N+](=O)[O-] (stereo unspecified) returned Calb biofilm kill 14.5.

As a working copy, part of the list above:
CC(C)(C)OC(=O)N1CCC[C@H]1c1nnc(SCc2cccc(Cl)c2)o1 was read as Calb biofilm kill 21.5.
For COc1cccc(CN2CCNC(=O)C2CC(=O)NCCc2nc(C)c(C)s2)c1OC (stereo unspecified) the results were Calb biofilm kill 5.8.
Screening CC(C)Nc1ccc(C(CC(N)=O)NC(=O)Cc2ccc(Cl)cc2)cc1[N+](=O)[O-] (stereo unspecified) returned Calb biofilm kill 14.5.

The results go on:
`O=C(CNC1CCCCC1)NCC1(c2ccccc2)CCCC1` gave Calb biofilm kill 13.6.
Cc1cc(C(=O)CSc2cccc[n+]2[O-])c(C)n1-c1ccc(OC(F)F)cc1 was read as Calb biofilm kill 10.7.
For COc1ccc(NC(=O)c2cccnc2)c([N+](=O)[O-])c1 the results were Calb biofilm kill 10.5.
Screening O=S(=O)(NCc1ccccc1)c1ccc(Br)c2nsnc12 returned Calb biofilm kill 24.9.
`Cc1cccc(CNc2ccc(C(CC(N)=O)NC(=O)Cc3cccc4ccccc34)cc2[N+](=O)[O-])c1` (stereo unspecified) gave Calb biofilm kill 8.5.
Screening Cc1noc(C)c1COc1ccc(C(=O)OCC(=O)NCc2ccccc2Cl)cc1 returned Calb biofilm kill 12.0.
CCc1ccc(C2=NN(CCC(=O)NC3CC3)C(=O)CC2)cc1 was read as Calb biofilm kill 23.4.
For O=c1oc2cc(Oc3ccc(C(F)(F)F)cc3[N+](=O)[O-])ccc2c2c1CCC2 the results were Calb biofilm kill 20.2.
For CCOC(=O)c1nnc2c(Br)c(-c3ccccc3)nn2c1C the results were Calb biofilm kill -1.6.
CCOC(=O)c1ccc(-c2ccc(/C=C(\C#N)C(=O)NCc3cccs3)o2)cc1 was read as Calb biofilm kill 9.7.
`CC(=O)c1cccc(N(C(=O)CNC(=O)c2ccco2)C(C(=O)NC2CCCC2)c2ccc(C)o2)c1` (stereo unspecified) gave Calb biofilm kill 10.2.
CN(CC(=O)Nc1cccc(C#N)c1)Cc1ccc(Cl)cc1 was read as Calb biofilm kill 1.4.
O=C(N/N=C/c1cn(-c2ccccc2)nc1-c1cccs1)c1ccc(Cl)cc1 was read as Calb biofilm kill -6.8.
Screening COc1ccccc1CC(=O)Nc1ccc([N+](=O)[O-])cc1OC returned Calb biofilm kill 9.0.
`Cc1n[nH]c(C)c1Sc1ccccc1[N+](=O)[O-]` gave Calb biofilm kill 6.7.
`N#Cc1cc([N+](=O)[O-])ccc1NC(=O)COC(=O)C12CC3CC(CC(C3)C1)C2` gave Calb biofilm kill 1.8.
`COc1ccccc1Oc1ccc(NC(=O)c2ccccc2)cc1` gave Calb biofilm kill 9.3.
COC(=O)c1cccc(S(=O)(=O)N2CCCC2)c1 was read as Calb biofilm kill 11.9.
For COCCN(Cc1nc(-c2ccc(C(F)(F)F)cc2)no1)C(C)C the results were Calb biofilm kill 6.6.
`C[C@@H]1NC(=O)[C@H](CCC(=O)O)NC(=O)c2cc([N+](=O)[O-])cc(F)c2NCCC[C@@H](C(N)=O)NC1=O` gave Calb biofilm kill 17.6.
For Cc1cc(C(=O)COc2ccc([N+](=O)[O-])cc2)c(C)n1C1CC1 the results were Calb biofilm kill 18.4.
Cc1ccc(C(=O)Nc2ccccc2C(=O)N2CCOCC2)cc1[N+](=O)[O-] was read as Calb biofilm kill 19.1.
For CCOC(=O)C1C(C(=O)OCC)C1(c1ccccc1)c1ccccc1 (stereo unspecified) the results were Calb biofilm kill 10.8.
CCC(C(=O)N1CCN(c2ncccn2)CC1)c1ccccc1 (stereo unspecified) was read as Calb biofilm kill 25.3.
Cc1occc1C(=O)Nc1cccc([N+](=O)[O-])c1 was read as Calb biofilm kill 5.7.
O=C(CSc1ccccn1)Nc1nncs1 was read as Calb biofilm kill -1.7.
`CCc1cccc(CC)c1NC(=O)/C(C#N)=C/c1ccccc1C(F)(F)F` gave Calb biofilm kill 13.7.
COCCOc1ccc(C(F)(F)F)cc1NC(=O)c1ccc(C(F)(F)F)cc1 was read as Calb biofilm kill 17.8.
Screening CC(C)c1ccc(/C=C2\C(=O)N(CCN3CCOCC3)C(=S)N2C)cc1 returned Calb biofilm kill 10.0.
`O=C(NNC(=O)c1cccnc1)Nc1cccc(Cl)c1Cl` gave Calb biofilm kill 17.9.
Screening N#Cc1ccccc1S(=O)(=O)N1CCN(c2cnccn2)CC1 returned Calb biofilm kill 8.0.
`Cn1c(=O)oc2cc(S(=O)(=O)N3CCC(N4CCCCC4)CC3)ccc21` gave Calb biofilm kill 11.8.
Screening NC(=S)N/N=C/c1coc2ccc(Cl)cc2c1=O returned Calb biofilm kill 16.2.
C/C(=N\NC(=S)Nc1cccc(C)c1)c1cccc(N)c1 was read as Calb biofilm kill 4.7.
`COc1ccccc1N=Nc1nc(-c2ccccc2)c(-c2ccccc2)[nH]1` gave Calb biofilm kill 13.9.
For O=C(Nc1ccccc1)N1CCN(c2nc(-c3ccccc3)ns2)CC1 the results were Calb biofilm kill 32.6.
`O=C(Cc1c[nH]c2ccccc12)N/N=C/c1ccccc1O` gave Calb biofilm kill 20.8.
Screening Cc1ccc(OCCCCN(C)Cc2ccccc2)c(Br)c1 returned Calb biofilm kill 7.8.
For CN(C)Cc1n[nH]c(=O)c2ccccc12 the results were Calb biofilm kill 9.2.
For O=C(NCCCc1ccccc1)Nc1ccccc1 the results were Calb biofilm kill 13.7.

Some of the compounds tested, so the mix of outcomes need not match the whole.
